CtBP-E1A inh – qHTS Assay for Inhibitors of the CtBP/E1A Interaction | CtBP / adenovirus E1A interaction (AlphaScreen) | AlphaScreen GST-E1A/His-CtBP binding, 1536-well; active compounds read low; control for the full effect not named in the record | activity change, % (test concentration not listed) | actives 0.49% (n = 340,000) | AID 651724, 2012; in the data active means activity change below about -65%; inconclusive means about -30% to -65%; inactive means above about -30%; further: on the % scale 0 is the no-effect control and ±100 the full control effect
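Protein mix (5X: 125 nM each GST-E1A, His-CtBP) was incubated with pinned compound 2 h at 37 deg C in dark, in 50 mM Tris pH 8.0 buffer with 300 mM NaCl. Glutathione donor and nickel acceptor beads followed; AlphaScreen signal read after 1 h.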
D2 ag – Beta-Arrestin HTS for Positive Allosteric Modulators of the Human D2 Dopamine Receptor: Agonists. DiscoveRx PathHunter D2 beta-arrestin, luminescence, 90 min; 100% = 57 uM dopamine signal. activation, % (concentration not given with the values). actives 0.084% (n = 360,000); in the data active = activation above about 40%; inconclusive = about 15% to 40%; inactive = below about 15%; further: compound concentration not given in the record; the text of the record calls up to 30% inactive
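DiscoveRx PathHunter D2 beta-arrestin cells (2,100/well) attached overnight, then compound-stimulated 90 min at 37 C in HBSS/10 mM HEPES/0.1% Tween-20 buffer; beta-galactosidase complementation read by luminescence after 1 h at ambient temperature. Dopamine 57 uM final (EC100) as control.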
Sfp inh – qHTS Assay for Inhibitors of Bacillus subtilis Sfp phosphopantetheinyl transferase (PPTase) | 4'-phosphopantetheinyl transferase ffp (Bacillus subtilis), Q9F4F7 | Biochemical Sfp PPTase activity, qHTS | Potency, µM, without a hit: max response, negative = inhibition, usual class: inhibitors | actives 3.5% (n = 310,000); active means well fitted inhibition curve with a large enough effect; inconclusive means small, poorly fitted or top-dose-only effect, or another doubt; inactive means no such curve, though single readings can be large or run the other way;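 further: the enzyme is Sfp with the accession as filed and its product quenches rhodamine fluorescence; potency means the concentration at half of the fitted maximal effect; 0% = enzyme reaction without inhibitor and -100% = no enzyme wells; top concentration of the series not given in the record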
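Sfp 15 nM + cpd, 15 min RT; start w/ rhodamine-CoA 5 uM, BHQ-2-YbbR 12.5 uM (final); 50 mM Hepes pH 7.6, 10 mM MgCl2, 0.01% NP-40, 0.01% BSA; read 525/598 nm at 0 and 30 min.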
TRPV1 potentiator – HTS Assay for Compounds that Act as Potentiators of the Vanilloid Receptor 1 | actives 0.02% (n = 320,000) | AID 540277, 2011 | TRPV1-expressing cells, Fluo-8 calcium influx, capsaicin EC20 potentiation; host cell line not named in the record; control for the full effect not named in the record | Transient receptor potential cation channel subfamily V member 1 (Homo sapiens), Q8NER1 | potentiation, % at 8.33 µM; active means potentiation above 80%; inconclusive means 30% to 80%; inactive means below 30%; further: 0% is about no effect
Target sequence (Q8NER1 whole entry, looked up): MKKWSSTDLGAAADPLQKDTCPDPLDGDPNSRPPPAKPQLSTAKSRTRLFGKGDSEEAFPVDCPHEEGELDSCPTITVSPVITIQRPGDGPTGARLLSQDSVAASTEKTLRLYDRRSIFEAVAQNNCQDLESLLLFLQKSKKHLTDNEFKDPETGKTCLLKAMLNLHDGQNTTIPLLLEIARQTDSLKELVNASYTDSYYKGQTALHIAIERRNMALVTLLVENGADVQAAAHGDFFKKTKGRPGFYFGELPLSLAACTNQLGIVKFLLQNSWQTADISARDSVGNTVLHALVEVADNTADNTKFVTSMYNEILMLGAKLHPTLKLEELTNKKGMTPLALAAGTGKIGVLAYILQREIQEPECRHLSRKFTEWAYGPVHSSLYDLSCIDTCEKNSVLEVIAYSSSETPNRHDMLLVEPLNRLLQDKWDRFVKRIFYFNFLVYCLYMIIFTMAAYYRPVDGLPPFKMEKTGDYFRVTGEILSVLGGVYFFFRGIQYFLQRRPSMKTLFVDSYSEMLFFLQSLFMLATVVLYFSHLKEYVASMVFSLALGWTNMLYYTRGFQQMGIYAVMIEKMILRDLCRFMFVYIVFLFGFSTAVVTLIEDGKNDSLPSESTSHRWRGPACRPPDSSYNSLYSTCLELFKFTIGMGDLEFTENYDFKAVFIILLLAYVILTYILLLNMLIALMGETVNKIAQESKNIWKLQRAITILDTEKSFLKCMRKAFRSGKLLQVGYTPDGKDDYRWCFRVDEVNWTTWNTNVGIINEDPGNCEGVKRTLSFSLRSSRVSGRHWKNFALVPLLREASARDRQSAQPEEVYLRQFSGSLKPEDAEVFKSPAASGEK
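Fluo-8 calcium influx in TRPV1-expressing cells, kinetic read (ex 480/em 520 nm). Compound added and read 3 min for agonist activity, followed by capsaicin at EC20 final and 2 min further read for enhancement.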
Six1-Eya2 blk – qHTS Assay for Inhibitors of the Six1/Eya2 Interaction | actives 0.56% (n = 360,000) | activity change, % (no concentration beside the values) | AlphaScreen GST-Six1/His-Eya2 binding, biochemical; active compounds read low; control for the full effect not named in the record | Homeobox protein SIX1 (Homo sapiens) + Protein phosphatase EYA2 (Homo sapiens), …; in the data active = activity change below about -65%; inconclusive = about -30% to -65%; inactive = above about -30%; further: on the % scale 0 is the no-effect control and ±100 the full control effect
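GST-Six1 + His-Eya2 (5X stock: 250/500 nM); Tris pH 8.0, 300 mM NaCl, 0.05% BSA, 0.02% Tween 20; GSH donor/Ni acceptor beads; 1 h 37 °C dark; AlphaScreen readout.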
D2 potentiator – Beta-Arrestin HTS for Positive Allosteric Modulators of the Human D2 Dopamine Receptor: Potentiators | D(2) dopamine receptor (Homo sapiens), P14416 | DiscoveRx D2 beta-arrestin cells, luminescence, 90 min; 100% = 57 uM dopamine signal | potentiation, % (concentration not given with the values) | actives 0.23% (n = 360,000); active = potentiation of 50% or more; inconclusive = 30% to 50%; inactive = 30% or less;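 further: compound concentration not given in the record; tested on top of an EC20 dose of dopamine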
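PathHunter D2 cells, attached overnight at 37 deg C, received compound in DMSO plus dopamine at EC20 (50 nM final) for 90 min at 37 deg C. Beta-arrestin recruitment was read as luminescence after 1 h with detection reagent at ambient temperature.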
PINK1 expr mod – A Quantitative High throughput Screen to Identify Chemical Modulators of PINK1 Expression. PINK1 immunofluorescence, high-content cytometry, 24 h. actives 0.2% (n = 410,000). AID 624263, 2012. Potency, µM (doses to about 76.6 µM), without a hit: top-dose activation (PINK1 increase), actives largely listed as activators; active = well fitted activation curve with a large enough effect; inconclusive = small, poorly fitted or top-dose-only effect; inactive = flat fitted curve, though single readings scatter; cell line not stated here;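 further: potency means the concentration at half of the fitted maximal effect; % of control where 0% means no effect; nearly all actives have a fitted effect of over 65% in size; a mitochondrial uncoupler was the plate control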
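Compound titrations (5 concentrations, 24 h) on a stable cell line; DMSO and CCCP controls. Endpoint: fixed-cell PINK1 immunofluorescence with mitochondrial, cell and nuclear markers, scanned by microplate cytometer.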
The depositor's hits bear a star; ? = inconclusive; · = not tested or not shown; & = joins results of further samples; [ ] = dose if it differs, or a comment.

Value order: CtBP-E1A inh	D2 ag	Sfp inh	TRPV1 potentiator	Six1-Eya2 blk	D2 potentiator	PINK1 expr mod
> Cc1c(NS(=O)(=O)c2cccc(C(=O)Nc3ccccc3)c2)c(=O)n(-c2ccccc2)n1C
    -1	-6.4	·	-9	1	-4	3.1%
> CC(C)(C)C(=O)/C(C#N)=C/c1ccc(O)cc1
    5	2.7	9%	-13	0	-2	-1.0%
> CCOc1ccccc1NC(=O)NNC(=O)COc1cccc(C)c1C
    -3	1.9	-2%	2	4	-2	0.0%
> CCCn1c(N)c(C(=O)CN(C)CC(=O)Nc2c(C)cc(C)cc2C)c(=O)[nH]c1=O
    15	-6.3	·	-1	3	-17	6.2%
> O=C1C=C(NCC2CCCO2)CC(c2ccccc2)C1 (stereo unspecified)
    -7	-3.9	16%	7	6	-4	4.5%
> CCOc1ccc2[nH]c3c(=O)n(CCc4ccc(OC)cc4)cnc3c2c1
    -1	-2.3	?	12	-1	-5	8.1%
> CCC(Sc1ccc2nnc(-c3cccnc3)n2n1)C(=O)OC (stereo unspecified)
    -10	-0.3	11%	16	0	-7	-0.8%&2.0%
> CC(C)COP(=O)(c1ccc(N(C)C)cc1)C(O)c1ccncc1 (stereo unspecified)
    -3	-4.3	-2%	6	-8	-17	-1.2%
> C=CCn1c(=O)c2c3c(sc2n2c(Nc4ccc(C(=O)OCC)cc4)nnc12)CCCC3
    -10	1.3	12%	-1	-1	1	·
> CCOc1ccc(NCCC#N)cc1
    -1	-1.3	-2%	0	-1	9	-0.2%
> O=C(c1ccc(N2C(=O)c3ccccc3C2=O)cc1)N1CCN(S(=O)(=O)c2ccccc2F)CC1
    -4	-0.8	·	·	4	-6	1.5%
> COC(=O)c1sccc1NC(=O)Nc1ccc(Cl)c(Cl)c1
    5	5.4	-1%	-1	-2	-15	9.0%
> CN(C)c1ccc(/C=N/NC(=O)CCCO)cc1
    -1	-6.5	-1%	14	-7	-2	3.8%
> C=CCNC(=O)c1onc(CSc2cccc(Cl)c2)c1C(=O)O
    3	-0.3	17%	23	-13	-5	1.2%
> CCc1ccc(NC(=O)CN(c2ccc(OC)cc2)S(=O)(=O)c2c(C)[nH]c(=O)[nH]c2=O)cc1
    ·	-1.3	27%	27	-4	-7	1.2%&3.3%
> CCOC(=O)CNC(=O)CSc1ncnc2c1cnn2-c1ccccc1
    -2	-1.1	3%	7	1	2	-1.1%
> Oc1ccc(/C=N/n2c(-c3ccccc3)n[nH]c2=S)cc1
    2	?	-2%	9	-4	-3	-0.8%
> CC(=O)Nc1cc(NC(C)=O)cc(C(=O)OCC(=O)N2CC(C)OC(C)C2)c1 (stereo unspecified)
    -5	-2.8	7%	-1	-9	-20	-1.0%
> COc1ccccc1N1CCN(C(=O)c2cc(-c3ccc(Cl)c(Cl)c3)on2)CC1
    4	-1.7	9%	5	4	2	21%[38.3 µM]
> Oc1[nH]c2ccccc2c1C=Nc1ccc2c(c1)OCCO2
    -16	-1.2	-15%	26	-11	-10	-6.1%
> O=C(c1cccc(Br)c1)N1CCN(c2ccccn2)CC1
    ·	2.6	·	·	2	4	-0.8%
> O=C(CCCN=C1NS(=O)(=O)c2ccccc21)OCC(=O)c1ccc(F)cc1
    -7	-7.9	·	-25	4	-12	-3.4%
> COc1ccc(/C=C/c2n[nH]c(=O)c(C#N)c2C)cc1
    -1	-0.4	13%	-36	-1	1	1.8%
> CCCN(C(=O)CSc1nc2c(cnn2-c2ccccc2)c(=O)[nH]1)C1CCS(=O)(=O)C1 (stereo unspecified)
    -2	-3.4	10%	20	3	-1	0.9%
> COc1ccccc1CNC(=O)C1CCN(S(=O)(=O)c2ccc3c(c2)OCCO3)CC1
    -6	-3.0	-4%	-5	7	-8	1.2%
> COc1cc(OC)cc(C(=O)N2CCC(C(=O)Nc3ccc4c(c3)OCCO4)CC2)c1
    -4	9.2	35%	7	14	0	1.3%
> CCOc1ccccc1C(=O)NN1C(=O)C2CCCCC2C1=O (stereo unspecified)
    0	-0.8	10%	10	4	3	0.0%
> C/C(N)=C(\C#N)C(=O)NCCc1ccccn1
    7	0.9	4%	-11	2	3	-1.0%
> O=C(Nc1cccnc1Cl)c1cc(-c2ccco2)on1
    -1	-0.1	1%	0	-2	-8	-0.5%
> COC(=O)CSc1nnc(-c2ccc(OC)c(OC)c2)o1
    4	1.3	25%	0	-1	-1	4.0%
> Cc1onc(-c2ccccc2)c1C(=O)NNC(=S)NC(=O)c1ccc2c(c1)OCO2
    -8	-6.9	19%	-17	-1	-13	1.8%
> CCN1CNC(=S)N(c2cccc(C)c2)C1
    -2	-0.7	0%	16	-2	-2	-0.9%
> O=C1OC(/C(=C\Nc2ccc(F)cc2F)[N+](=O)[O-])c2ccccc21 (stereo unspecified)
    3	-2.6	?	16	11	-3	2.5%
> CCOc1ccc(S(=O)(=O)N(C)CC(=O)NC2CC2)cc1
    -9	-1.9	8%	11	2	-11	0.2%
> O=C(COC(=O)C1CCN(c2ccc(C(F)(F)F)cn2)CC1)Nc1ccc(F)cc1[N+](=O)[O-]
    -29	5.0	·	-3	-14	2	-2.6%
> CCN(C(=O)CC(C)C)c1nnc(Cn2nnc3ccccc32)s1
    1	-3.6	-1%	0	-10	-1	0.1%
> C=CCNC(=S)NNC(=O)C(CCCC)CC(C)O (stereo unspecified)
    0	-3.6	7%	-4	-7	8	-2.5%
> CC1CCCCC1NS(=O)(=O)c1ccc(S(=O)(=O)N2CCN(CCC#N)CC2)cc1 (stereo unspecified)
    0	2.6	11%	-21	0	-1	0.2%
> Cc1nc(-c2ccc(F)cc2)c(CC(=O)N2CCN(S(=O)(=O)c3cccc([N+](=O)[O-])c3)CC2)s1
    -8	?	·	8	-8	29	-3.4%
> N#CCCN(CCC#N)C(=O)COc1ccc(Cl)cc1Cl
    -4	0.1	2%	-20	-1	1	2.0%[38.3 µM]

Sorted by molecular weight (falling): some entries from above.
Value order: CtBP-E1A inh	D2 ag	Sfp inh	TRPV1 potentiator	Six1-Eya2 blk	D2 potentiator	PINK1 expr mod
> Cc1nc(-c2ccc(F)cc2)c(CC(=O)N2CCN(S(=O)(=O)c3cccc([N+](=O)[O-])c3)CC2)s1
    -8	?	·	8	-8	29	-3.4%
> O=C1OC(/C(=C\Nc2ccc(F)cc2F)[N+](=O)[O-])c2ccccc21 (stereo unspecified)
    3	-2.6	?	16	11	-3	2.5%
> CCN1CNC(=S)N(c2cccc(C)c2)C1
    -2	-0.7	0%	16	-2	-2	-0.9%

More entries follow:
Value order: CtBP-E1A inh	D2 ag	Sfp inh	TRPV1 potentiator	Six1-Eya2 blk	D2 potentiator	PINK1 expr mod
> O=C(NCCCN1CCCC1=O)NC12CC3CC(CC(C3)C1)C2
    11	-4.2	9%	-3	2	-5	-4.2%
> Cc1cccc(-n2nnc(C(=O)Nc3ccc(F)cc3)c2N)c1
    0	-0.3	?	-8	-1	26	-0.6%
> COCCn1c(N)c(N(Cc2ccccc2)C(=O)CSCC(=O)Nc2ccc(OC)cc2)c(=O)[nH]c1=O
    3	-3.8	·	4	0	-11	0.8%
> COc1ccc(C(=O)CSc2nnc(CNC(=O)c3ccc(OC)c(OC)c3)n2C)cc1
    -6	0.6	-15%	-16	6	-8	-0.7%
> Cc1cc(F)c(F)c(C(=O)N2CCCCC2C)c1Cl (stereo unspecified)
    10	-1.0	15%	-27	15	-6	1.5%
> CCn1cc(Cl)c(C(=O)NNC(=O)CCn2nc(C)c([N+](=O)[O-])c2C)n1
    2	-0.4	6%	8	0	-20	-0.1%
> COc1ccc(OC)c(Nc2nc(-c3sc(NC(=O)C(C)(C)C)nc3C)cs2)c1
    ?	-2.5	11%	-7	-29	-15	0.6%
> CN(C)C(=O)CSc1nc2ccc(C(=O)c3ccccc3)cc2[nH]1
    ·	3.8	12%	0	-2	4	-0.6%
> COCC(=O)N(Cc1cc2cc(C)ccc2[nH]c1=O)c1ccccc1
    10	-0.6	5%	1	-11	-4	2.1%
> Cc1onc(-c2c(F)cccc2Cl)c1C(=O)NC1=NCCS1
    4	2.6	12%	3	-1	5	-5.2%[38.3 µM]
> CC(C)(C)c1ccc(C(=O)NCC(=O)N2CCCCCC2)cc1
    4	-0.6	20%	-14	6	-4	1.3%
> O=c1[nH]c(CSc2nnc(-c3ccccc3)n2C2CCCCC2)nc2ccccc12
    1	-3.0	4%	17	-1	-13	-4.8%[38.3 µM]
> Cc1cccc(N=Nc2ccc(O)c3ncccc23)c1
    -79*	-16	-3%	14	-84*	-40	?
> CC(C)(C)c1ccccc1OCC(=O)NCCC(=O)O
    2	0.9	8%	-1	3	-7	2.5%
> O=c1[nH]c(CSc2nc(-c3ccccc3)cs2)nc2ccccc12
    3	-1.3	-6%	?	0	-4	2.6%
> CN(C)CC(=O)Nc1ccc(S(N)(=O)=O)cc1
    -1	-1.2	4%	2	1	7	-1.2%
> COC(=O)C1(C)NC(c2ccccc2F)C2C(=O)N(c3ccccc3)C(=O)C21 (stereo unspecified)
    ·	5.0	15%	?	-20	-6	-0.1%
> Cc1noc(C)c1S(=O)(=O)NCCN1CCN(c2ccccc2)CC1
    -3	9.8	5%	17	0	-23	-1.5%
> Cc1cc(C)cc(CC(=O)N2CCC2(C)C(=O)NS(=O)(=O)c2cccc(F)c2)c1 (stereo unspecified)
    4	-5.3	·	·	-4	-1	2.0%
> CCOC(=O)C1=C(COC(=O)CCNS(=O)(=O)c2ccc(C)c(C)c2)NC(=O)NC1C (stereo unspecified)
    -8	-6.0	·	-5	1	-2	-0.7%
> CCCCSCCCNC(=O)c1cn(CC)c2ccc(S(=O)(=O)N3CCOCC3)cc2c1=O
    ·	-5.4	15%	-19	-8	-5	2.2%&1.6%
> CN1CCN(CC(C)(C)NS(=O)(=O)c2ccccc2)CC1
    -3	-4.1	·	·	-5	-18	-0.8%
> COc1cc(NC(=S)NNC(=O)CC(C)C)c(OC)cc1Cl
    ·	-8.0	5%	13	0	-11	-0.6%
